VACV mCherry inh – vaccinia inhibition (mCherry reporter); Vaccinia virus mCherry reporter infection, fluorescence; about a quarter of the inactives have no number; Potency, µM (series often up to 36.5 µM), without a hit: top-dose activity change, negative = inhibition, hits mostly inhibitors; 310,000 compounds, 0.63% hits; active = well fitted inhibition curve with a large enough effect; inconclusive = small, poorly fitted or top-dose-only effect; inactive = no such curve, though single readings can be large or run the other way; tested in A549 cells; also: nearly all actives have a fitted effect of over 35% in size; inactives centre near -10
Vaccinia Venus – vaccinia inhibition (Venus reporter). Potency, µM (series often up to 36.5 µM), without a hit: top-dose activity change, negative = inhibition, usual class: inhibitors. 330,000 compounds, 0.46% hits. AID 720580. Vaccinia virus Venus reporter expression, fluorescence; active means well fitted inhibition curve with a large enough effect; inconclusive means small, poorly fitted or top-dose-only effect; inactive means no such curve, though single readings can be large or run the other way; tested in A549 cells; also: nearly all actives have a fitted effect of over 30% in size; inactives centre near -10
Active calls of the source: *; i = inactive; ? = inconclusive; · = no result given; [ ] = remark or other dose. % is scaled to controls: 0 for no effect and ±100 for the full control effect; potency is read from the fitted curve at half-maximal effect.

Compound	VACV mCherry inh	Vaccinia Venus
Cc1cc(C)c2c(=O)n3c(nc2c1)C(Cc1ccccc1)NC(=O)c1cccnc1-3 (centres undefined)	i	-25%
CSc1ncnc2c1ncn2CCCNCc1ccccn1	-6%	-9%
CN1CCN(c2nc(-c3ccccc3)nc(-c3ccc(F)cc3)c2C#N)CC1	-4%	-2%
CCOc1ccc(-c2c(C(=O)N/N=C/c3ccc(C)o3)nnn2-c2nonc2N)cc1	i[7.34 µM]	0%[7.34 µM]
Cc1ccc(N=Nc2c(O)[nH]c3ccc(F)cc23)cc1	-20%	133%[activator]
O=C(Cc1cccc(NC(=O)C2CCN(C(=O)C3CCCCC3)CC2)c1)Nc1cccc(C(=O)N2CCCCC2)c1	-19%	-18%
CC1=C(C(=O)Nc2ccc(C)cc2C)C(c2cccs2)n2nc(SCc3ccccc3Cl)nc2N1 (centres undefined)	-15%	-3%
CC(=O)Nc1ccc(NC(=O)COC(=O)c2ccccc2SCC(=O)N2CCCC2)cc1	-13%	-7%
CC(C)COc1nc2ccccc2c(=O)n1OCC(=O)O	i	-4%
O=Cc1cnc(N2CCN(Cc3ccccc3)CC2)s1	i	-12%
Cn1c(=O)c(C(=O)NNC(=O)c2ccc(Br)cc2)c(O)c2ccccc21	-25%	?
O=C(COC(=O)c1cccc(C(F)(F)F)c1)NCc1ccc(Cl)cc1	-17%	19%
CN(CC(=O)NC1CCN(Cc2ccccc2)CC1)S(=O)(=O)c1ccc2c(c1)c(=O)n(C)c(=O)n2C	i	-10%
O=C1C2CCN(CC2)C1Cc1ccc(OCc2ccccc2)cc1 (centres undefined)	-10%	-8%
CC(C)(C)c1ccc(C(=O)N2CCN(c3ccc(N4CCOCC4)nn3)CC2)cc1	i	-12%
CCOC(=O)c1c(C)[nH]c(C)c1C(=O)COC(=O)/C=C/c1ccc(Cl)cc1	-6%	-18%
O=C1NC(=S)NC1Cc1ccc(O)cc1 (centres undefined)	i	-3%
Cc1ccc(-c2cc3nc(-c4ccccc4)cc(N4CCOCC4)n3n2)cc1	-11%	-6%
C=CCNc1ncnc2ccccc12	i	-16%
COc1cccc(CC(=O)OC(C)C(=O)Nc2ncc(Cl)cc2Cl)c1 (centres undefined)	-8%	-12%
COc1ccccc1NC(=S)N(Cc1cccs1)C1CCCC1	-32%	-16%
O=C(CSc1nc2ccccc2c(=O)n1-c1ccc(F)cc1F)NC1CCS(=O)(=O)C1 (centres undefined)	-1%	-9%
COC(=O)Cn1cc(C(=O)C2CC2)c2ccccc21	-15%	-7%
CCSc1nc2sc3c(c2c(=O)n1-c1ccc(OC)cc1)CCN(C)C3	-26%	-18%
COC(=O)c1ccc2c(c1)C(=O)N(C1CCCCC1)C2=O	·	-13%
CCC(=O)OC1CC(C)N(C(=O)c2ccccc2)c2ccc(C)cc21 (centres undefined)	-24%	-17%
COC(=O)CSc1nnc2cc(C)c3ccccc3n12	i	-5%
O=C(NCc1cccnc1)c1cc(C2CCCN(S(=O)(=O)c3cccc4cccnc34)C2)on1 (centres undefined)	-7%	-8%
CC1(Cc2ccccc2Cl)C(=O)Nc2c(Cl)cccc21 (centres undefined)	i	-11%
CCOc1ccc(NC(=O)C2CCC(CNc3c(N4CCOCC4)c(=O)c3=O)CC2)cc1 (centres undefined)	i	-12%
Cc1cc2ccccn2c1C(=O)c1ccc([N+](=O)[O-])cc1[N+](=O)[O-]	?	-8%
COc1ccc(N2CCN(C(=O)c3ccc(N4C(=O)NC5CC4(C)Oc4ccccc45)cc3)CC2)cc1 (centres undefined)	i	-15%
COCc1ccc(CN2CCCC(CO)(Cc3ccccc3)C2)o1 (centres undefined)	-3%	-14%
CC1=C(C(=O)N2CCCCC2)C(c2cccs2)NC(=O)N1 (centres undefined)	-11%	-2%
COc1ccccc1NC(=O)Cn1cnc2c(oc3ccccc32)c1=O	6%	-11%
CC(=O)Nc1ccc(NC(=O)C2C3C=CC(C3)C2C(=O)O)cc1 (centres undefined)	-11%	1%
Cc1ccc2c(c1)nnn2C1CCN(CC(=O)c2ccc(Cl)cc2)CC1	9%	7%
CC(C)CC(=O)NC1(C(F)(F)F)C(=O)N(CC(C)C)C2=C1C(=O)CC(C)(C)C2 (centres undefined)	i	-8%
O=C(NCCN1CCN(c2ccccc2)CC1)c1ccccc1F	i	-12%
O=C(c1ccc2c(c1)CCN2S(=O)(=O)c1ccc(Cl)cc1)N1CCN(c2ccc(F)cc2)CC1	-20%	-22%
c1ccc(Oc2nc(Oc3ccccc3)nc(N3CCOCC3)n2)cc1	·	-24%
COc1ccc2[nH]c(C)c(CCN(Cc3cccs3)C(=S)Nc3ccc(F)cc3)c2c1	?	-21%
O=C(Nc1nccs1)C1CCCN1S(=O)(=O)c1cccc2cccnc12 (centres undefined)	9%	-11%
Cc1cccc(Cn2cc(S(=O)(=O)c3cccc(C)c3)c(=O)c3cc(F)c(N4CCOCC4)cc32)c1	-12%	-19%
Cc1ccc(-c2n[nH]c3c2C(c2cccc(O)c2)N(c2ccc(C(=O)O)cc2)C3=O)cc1 (centres undefined)	-11%	-10%
Cc1ccc(OCC(=O)NCCN2CCN(C(=O)COc3ccc(C)cc3)CC2)cc1	i	-12%
O=C(O)Cn1cnc2ccccc2c1=O	-5%	-13%
Cc1ccc(NC(=O)CSCC(=O)NC2CCCCC2)cc1	-18%	-12%
CCN(CC)CC(=O)NN(Cc1ccccc1)c1ccccc1	-19%	-9%
Cc1ccc(Cl)cc1NC(=O)C(=O)NCCc1sc(-c2ccc(F)cc2)nc1C	-17%	-7%
CCn1nc(C)c(NC(=O)/C=C/c2ccc(OC)c(COc3ccc(Cl)cc3Br)c2)c1C	-11%	-9%
CCCCn1c(O)c(/C=C/C=Nc2ccccc2)c(=O)[nH]c1=O	-2%	-3%
COc1cccc(CCNC(=O)c2c(O)nc3c(C)cccn3c2=O)c1	i	0%
Cc1nn(-c2ccccc2)c(OC(=O)c2ccccc2F)c1S(=O)(=O)c1ccccc1	-14%	-5%
CCCCC(CCC(=O)Nc1ccc(C(=O)OC)cc1)C(=O)O (centres undefined)	·	-14%
Cc1cccc(N2C(N)=NC(N)=NC23CCCCC3)c1	-14%	-6%
O=C(O)c1ccc(N2C(=O)C3ON(c4ccccc4)C(c4ccccc4F)C3C2=O)cc1 (centres undefined)	-15%	-5%
S=c1[nH]nc(C2CCCCC2)n1/N=C/c1cccs1	-20%	-11%
O=C(Cn1nnc(-c2ccncc2)n1)NCCc1ccccc1	-3%	-15%
C=CCNC(=O)c1onc(CSc2ccccc2C)c1C(=O)O	i	-10%

Next records follow:
Compound	VACV mCherry inh	Vaccinia Venus
Cc1ccc(N2C(=O)CN(Cc3cccs3)C2=S)cc1C	?	1%
CC1CCCCN1C(=O)Nc1cccc(C(F)(F)F)c1 (centres undefined)	i	-8%
COc1ccc(OCC(=O)OCc2cc(=O)n3nc(-c4cccs4)sc3n2)cc1	-7%	-4%
COc1cccc(/C=C2\SC(=S)N(CCCC(=O)N3CCOCC3)C2=O)c1	?	13µM*
O=S1(=O)C[C@@H]2N=C(N/N=C/c3ccccc3)S[C@@H]2C1	-21%	1%
CCCCNC(=S)NNC(=O)c1nn(C)c(C)c1Cl	-15%	-12%
Cc1ccc(S(=O)(=O)Nc2nc(-c3ccccc3)cs2)cc1	-19%	-2%
CCOc1ccccc1NC(=O)CCC(=O)Nc1nnc(C2CCCCC2)s1	i	-8%
CCOc1ccc(NC(=O)c2oc3ccccc3c2NC(=O)c2c(F)cccc2F)cc1	-5%	-4%
CNc1ncncc1-c1ccccc1OC	i	-14%
COc1ccccc1C(=O)NCc1ccc2c(c1)CCN2C(=O)c1cccc(C)c1	i	-8%
Cc1ccc(-c2nnn(CC(=O)N(c3ccc(F)cc3)C(C(=O)NC(C)(C)C)c3ccco3)n2)o1 (centres undefined)	i	-7%

Continued:
Results follow in this order: VACV mCherry inh	Vaccinia Venus
> O=C(Nc1ccn(CCCNCc2ccccc2)c(=O)n1)OCc1ccccc1
→ -20%	?
> O=C1NC(=O)N(C2CCCCC2)CC1Br (centres undefined)
→ i	-8%
> CSc1nnc(NC(=O)c2nc(S(=O)(=O)Cc3cccc(C)c3)ncc2Cl)s1
→ -7%	2%
> Cc1cc(=O)n(Cc2ccccc2)c2c(C)cccc12
→ -2%	-6%
> O=[N+]([O-])c1ccc(/C=C2\C=Cc3ccccc32)cc1
→ 9%	-9%
> CCOc1cc(C2C(C(=O)Nc3ccccc3)=C(C)Nc3ncnn32)cc(Br)c1O (centres undefined)
→ -4%	-1%
> COc1ccc(C(=O)NCC(=O)N/N=C/c2cn[nH]c2-c2ccccc2)cc1
→ -1%	2%
> O=C(Nc1ccc(S(=O)(=O)N2CCCCC2)cc1)c1cccnc1Cl
→ -14%	-7%
> COc1ccc(CN2[C@@H](CC(=O)O)c3ccc(C(F)(F)F)cc3S2(=O)=O)cc1
→ -14%	-13%
> CCCCN(C(=O)CCC(=O)Nc1cc(C)on1)C(C(=O)NC1CCCC1)c1cccc(OC)c1 (centres undefined)
→ -8%	-19%
> CSc1cccc(NC(=O)C2CCN(c3nc4ccccc4[nH]3)CC2)c1
→ -11%	-13%
> NC(=O)Nc1ccccc1C(=O)N1CCC(O)(c2ccc(Cl)cc2)CC1
→ -16%	-10%
> O=C(CC1C(=O)NCCN1C(=O)Nc1ccc(F)cc1)Nc1ccc(F)cc1 (centres undefined)
→ i	-24%
> C/C=C(\C)C(=O)NCCN1C2=NC[C@H](Cc3ccccc3)N2C[C@@H]1Cc1ccc(OC)cc1
→ -32%	-13%
> Cc1ccc(-c2nc(SCC(=O)c3c(N)n(C)c(=O)n(C)c3=O)n[nH]2)cc1
→ -9%	-14%
> O=S(=O)(NCCNc1ncc(C(F)(F)F)cc1Cl)C(F)(F)F
→ -6%	-27%
> O=C(Nc1ccc(Cl)c(S(=O)(=O)N2CCOCC2)c1)c1cc(-c2ccccn2)nc2ccccc12
→ i	-15%
> CCc1ccccc1NC(=O)CCCN1C(=O)CCn2nc(-c3cn(C)c4ccccc34)cc21
→ -10%	0%
> CCOc1ccc(OCC(=O)Nc2cc(Cl)ccc2-n2cncn2)cc1
→ 2%	-11%
> CCn1c(NCc2cccc(Cl)c2)nc2ccccc21
→ i	2%

Whole records, looked up by structure:
`O=S(=O)(NCCNc1ncc(C(F)(F)F)cc1Cl)C(F)(F)F` across the screens: VACV mCherry inh = -6%; Vaccinia Venus = -27%
`O=C(CC1C(=O)NCCN1C(=O)Nc1ccc(F)cc1)Nc1ccc(F)cc1` (centres undefined) across the screens: VACV mCherry inh = i; Vaccinia Venus = -24%
`CCOc1ccc(OCC(=O)Nc2cc(Cl)ccc2-n2cncn2)cc1` across the screens: VACV mCherry inh = 2%; Vaccinia Venus = -11%

Other results follow.
Results follow in this order: VACV mCherry inh	Vaccinia Venus
> Cc1sc2nc(COC(=O)c3ccc(N4CCCC(C)C4)c([N+](=O)[O-])c3)[nH]c(=O)c2c1C (centres undefined)
→ 2%	-14%
> Cc1cc(O)c(CN2CCN(c3ccccc3)CC2)c2oc(=O)cc(C)c12
→ -10%	-12%
> COc1ccccc1OCCCn1cc(C=O)c2ccccc21
→ -11%	-14%
> Cc1ccc2c(c1)N(CC(=O)N1CCCC1)C(=O)CO2
→ i	-4%
> c1csc(-c2nnc(COc3ccc4c(c3)OCO4)o2)c1
→ i	-5%
> CCc1ccccc1-n1c(SCC(=O)NC)nnc1-c1cccnc1
→ -17%	-7%
> Cc1cc(-c2nnc(CCC(=O)NC(Cc3ccccc3)c3ccccc3)o2)no1 (centres undefined)
→ i	-12%
> O=S(=O)(NCc1ccc(Cl)cc1)NCc1ccccc1F
→ -11%	-27%
> COc1ccc(C2=NN(C(=O)CCC(=O)O)C(c3ccccc3OC)C2)cc1 (centres undefined)
→ -12%	-18%
> C=CCn1c(N2CCN(c3ccc(OC)cc3)CC2)nc2c1c(=O)[nH]c(=O)n2C
→ i	-13%
> Cc1cc(C(=O)NCC(C)(C)N2CCOCC2)c(C)o1
→ -6%	-4%
> Cc1noc(C)c1NC(=O)Nc1cccc2c1O[C@H](CN(C)S(=O)(=O)c1c(C)noc1C)[C@@H](C)CN([C@H](C)CO)C2=O
→ 0%	-6%
> CC(=O)Nc1ccc(-c2nnc(SCC(=O)n3c4c(c5ccccc53)CCCC4)n2C)cc1
→ -8%	-12%
> Nc1ccc2ccccc2c1[N+](=O)[O-]
→ -16%	3%
> COc1ccc(C(=O)NCCn2cc(SCC(=O)NCCc3ccc(OC)c(OC)c3)c3ccccc32)cc1
→ -12%	-16%
> CCc1ccc(C(=O)Nc2cccnc2Oc2ccc(Cl)cc2)cc1
→ -39%	-13%
> O=C(NCC1CCCO1)c1ccc(Cl)c(S(=O)(=O)N2CCOCC2)c1 (centres undefined)
→ i	-8%
> O=C(CCn1c(=O)c2ccccc2n(Cc2ccccc2)c1=O)NCc1ccc2c(c1)OCO2
→ -11%	-8%
> O=C(COc1ccc(Cl)cc1)OCc1csc(Nc2ccccc2)n1
→ -2%	-4%
> COc1ccc(Cl)cc1NC(=O)CN(C)C(=O)c1ccc(C)s1
→ -13%	-5%
> CN(C)CCCNC(=O)c1ccc(-c2ccccc2)cc1
→ ·	-38%
> Cc1noc(C)c1COc1cccc(C(=O)NCc2cccc(Cl)c2)c1
→ -22%	-16%
> COc1ccc(NC(=O)Nc2nnc(SCC(=O)Nc3cccc(C)c3C)s2)cc1
→ 0%[7.34 µM]	-2%[7.34 µM]
